Assay outcomes as filed in PubChem.
Mtb growth: M. tuberculosis H37Rv growth inhibitors, H37Rv strain (AID 1626) | M. tuberculosis H37Rv growth inhibition; higher % means a stronger effect | 0.95% of 220,000 active | one-dose inhibition, % at 10 µM; IC50 in µM for titrated hits;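 active = confirmed in a dose series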;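 note: bacteria incubated seven days before Alamar blue readout; 0% = bacteria only wells and 100% = bacteria with antibiotic wells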
Mtb betalactam: beta-lactam sensitization of Mtb H37Rv, H37Rv | inhibition, % at 25 µM | 0.27% of 330,000 active | M. tuberculosis H37Rv growth with meropenem, percent inhibition; hits of this screen are not shown here;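 active = about 74% or more and at least 40 points above the plate without the antibiotic, then above 30% in a dose series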;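 note: growth measured after seven days incubation then overnight dye step; 0% = bacteria only wells and 100% = bacteria with antibiotic; twin plates without the antibiotic show which effects depend on it; some results filed as inactive read as strong as hits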
RecA intein inh: Mtb RecA intein splicing inhibitors, primary screen, biochemical, fluorescence, HTS; cell-free RecA intein splicing; inhibition, %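 (about 9 µM by stock and volumes)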; 0.75% of 290,000 active; AID 2221, 2009; in the data active = inhibition above about 30%;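 note: 0% = vehicle wells and 100% = reference inhibitor control wells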
Target sequence (P9WHJ3 whole entry, looked up): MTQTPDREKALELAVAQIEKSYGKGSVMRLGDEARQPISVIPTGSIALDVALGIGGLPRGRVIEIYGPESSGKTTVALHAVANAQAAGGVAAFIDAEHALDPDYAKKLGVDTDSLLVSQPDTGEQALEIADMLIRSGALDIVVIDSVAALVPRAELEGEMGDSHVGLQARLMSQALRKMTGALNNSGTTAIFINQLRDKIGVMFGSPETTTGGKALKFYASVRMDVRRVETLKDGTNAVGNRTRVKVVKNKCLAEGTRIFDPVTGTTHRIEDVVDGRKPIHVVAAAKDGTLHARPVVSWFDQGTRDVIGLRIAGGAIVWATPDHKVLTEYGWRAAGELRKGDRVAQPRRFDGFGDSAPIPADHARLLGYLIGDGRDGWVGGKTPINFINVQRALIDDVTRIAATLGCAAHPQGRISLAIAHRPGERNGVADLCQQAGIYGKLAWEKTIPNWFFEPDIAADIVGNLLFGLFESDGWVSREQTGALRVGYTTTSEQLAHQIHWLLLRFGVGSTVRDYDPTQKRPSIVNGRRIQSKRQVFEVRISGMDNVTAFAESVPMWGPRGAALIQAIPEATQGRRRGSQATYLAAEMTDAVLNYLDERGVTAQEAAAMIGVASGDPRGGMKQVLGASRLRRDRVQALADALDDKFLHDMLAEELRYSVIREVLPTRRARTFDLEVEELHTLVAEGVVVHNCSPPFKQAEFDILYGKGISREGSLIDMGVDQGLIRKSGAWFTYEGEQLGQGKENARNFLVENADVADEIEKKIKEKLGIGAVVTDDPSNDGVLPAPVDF
YopH inh: YopH tyrosine phosphatase inhibitors, primary screen, biochemical, fluorescence Ex485/Em525. YopH tyrosine phosphatase [Yersinia enterocolitica]. inhibition, %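 (about 10 µM by stock and volumes)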. 0.16% of 140,000 active. AID 898, 2007;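 active = inhibition of 50% or more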;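 note: controls were vehicle for no effect and minimum signal wells for full effect; inactives centre near -20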
Arbovirus anti: antivirals against arbovirus infection, primary screen, cell-based, full library, 10K replicate subset; inhibition, % at 10 µM; 0.37% of 200,000 active; arbovirus infection cell-based antiviral screen;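 active = inhibition from about 30%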;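 note: bluetongue infection of BSR cells; cell survival read as ATP light after 72 h; 0% = infected wells without compound and 100% = uninfected wells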
Arbovirus anti repeat: second read-out of Arbovirus anti, no call of its own (marks repeat the call); inhibition, %; measured here: 10K subset replicate screen; many hits read low in the repeat;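 first of two repeat runs on a subset; 0% = infected and 100% = uninfected wells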
Numbers without * were called inactive; nt = not tested or not shown. These rows are one share of the data; the hit share may differ from the screen's.

The opening 5 entries, ahead of the listing:
SMILES | Mtb growth | Mtb betalactam | RecA intein inh | YopH inh | Arbovirus anti | others
Cc1c(NC(=O)CSCc2ccc(Br)cc2)c(=O)n(-c2ccccc2)n1C | -6% | 0 | -3.0 | nt | -7
CC(C)CC(NC(N)=O)C(=O)Nc1ccc(Cl)c(Cl)c1 (stereo not drawn) | 6% | 3 | 4.5 | nt | -9
COC(=O)COc1ccc(C2NC(=O)NC(c3ccccc3)=C2C(C)=O)cc1OC (stereo not drawn) | 2% | 3 | 1.7 | -40 | 3
CCOC(=O)C(=CNc1ccc(NC2=NCC(C)(C)S2)cc1)C(=O)OCC | 3% | 67 | 2.0 | nt | nt
CCNc1cc(Cl)nc(SC)n1 | nt | -8 | -1.3 | -25 | 1

All compounds of this part, repeating the preview:
SMILES | Mtb growth | Mtb betalactam | RecA intein inh | YopH inh | Arbovirus anti | others
Cc1c(NC(=O)CSCc2ccc(Br)cc2)c(=O)n(-c2ccccc2)n1C | -6% | 0 | -3.0 | nt | -7
CC(C)CC(NC(N)=O)C(=O)Nc1ccc(Cl)c(Cl)c1 (stereo not drawn) | 6% | 3 | 4.5 | nt | -9
COC(=O)COc1ccc(C2NC(=O)NC(c3ccccc3)=C2C(C)=O)cc1OC (stereo not drawn) | 2% | 3 | 1.7 | -40 | 3
CCOC(=O)C(=CNc1ccc(NC2=NCC(C)(C)S2)cc1)C(=O)OCC | 3% | 67 | 2.0 | nt | nt
CCNc1cc(Cl)nc(SC)n1 | nt | -8 | -1.3 | -25 | 1
Cc1ccc(CNS(=O)(=O)c2c(C)n(C)c(=O)n(C)c2=O)cc1 | 3% | -7 | 3.5 | nt | nt
COc1ccc(CCNC(=O)C(=O)NCCC2CCCCN2S(=O)(=O)c2ccccc2)cc1 (stereo not drawn) | nt | -4 | -1.4 | nt | nt
O=C1NC2(CCCCCC2)N=C1c1ccc(Br)cc1 | 1% | 5 | -0.9 | nt | 2
CC(=O)c1cccc(NC(=O)CCOc2ccccc2)c1 | 0% | -6 | -1.0 | -27 | 2 | Arbovirus anti repeat=-1
CSc1nc2c(c(=O)[nH]1)C(c1ccncc1)C(C(=O)OC(C)C)=C(C)N2 (stereo not drawn) | -19% | -5 | 0.2 | -32 | 6
O=C1CCN(S(=O)(=O)c2ccc(Cl)cc2)CCN1 | -8% | -5 | -4.2 | nt | nt
COCC(C)NC(=O)CCSc1nc(-c2ccc(OC)cc2)cc(C(F)(F)F)n1 (stereo not drawn) | 10% | -5 | 1.4 | -5 | 3
COC(=O)c1cn(CCOc2ccccc2F)c2ccccc12 | -3% | 9 | 12 | -19 | 3
O=C1CCC([N+](=O)[O-])C(c2cccc3ccccc23)N1 (stereo not drawn) | 5% | 4 | -0.2 | nt | 2
COc1ccc(N/C=C2\CCOC2=O)cc1 | >100µM* | -5 | -1.7 | 6 | -13
Cn1cnnc1SCC(=O)NCc1cccc(C(F)(F)F)c1 | -9% | -2 | -2.2 | -32 | -3
C[C@@H]1CN(C2CCN(Cc3nc(CC4CC4)no3)CC2)C[C@H](C)O1 | 0% | 1 | 0.8 | nt | 2
O=C(NC1CCCCCC1)C1CCCN(S(=O)(=O)c2cnc[nH]2)C1 (stereo not drawn) | -10% | -1 | -1.6 | -46 | -1
O=C(NCc1ccc2c(c1)OCO2)C1CCC(CNS(=O)(=O)c2ccccc2)CC1 (stereo not drawn) | -3% | 0 | -2.5 | -20 | -3
CC(NC(=O)c1ccc(F)cc1)C(c1cccs1)N1CCN(C)CC1 (stereo not drawn) | 3% | 0 | -0.5 | -10 | 5
Cc1ccc(C)c(C(=O)COC(=O)CCCC(=O)Nc2cc(C(F)(F)F)ccc2Cl)c1 | -2% | 0 | 1.9 | -37 | -6
COC(=O)c1c(NC(=O)c2c(OC)cccc2OC)sc2c1C(C(=O)OC)CC2 (stereo not drawn) | nt | 4 | -3.3 | nt | nt
CCOC(=O)CC(NC(=O)c1ccco1)c1ccc(OC)cc1 (stereo not drawn) | 1% | 2 | -0.2 | -53 | 2
CCCCc1c(O)nc(SCC(=O)N2CCCCC2)[nH]c1=O | nt | 14 | -2.1 | nt | nt
CCOC(=O)c1[nH]c2ccc(C(=O)OC)cc2c1C(=O)OCC | nt | 18 | -2.7 | nt | nt
C/C(=N\NC(=O)c1ccccc1Cl)c1c(O)n(C2CCCCC2)c(=O)[nH]c1=O | nt | 8 | 0.9 | nt | nt
COc1cc(/C=C2/C(=N)N3C(=NC2=O)SN=C3S(C)(=O)=O)ccc1OS(=O)(=O)c1ccc(C)cc1 | nt | 2 | 13 | nt | nt
Cc1ccc(S(=O)(=O)Nc2c(C(=O)O)[nH]c3ccccc23)c(C)c1 | nt | -10 | 4.0 | nt | nt
Cc1sc(NC(=O)C2CCCO2)c(C(N)=O)c1C (stereo not drawn) | 1% | -3 | -1.5 | -3 | -7
CC1CCN(c2ccc3nnc(CCC(=O)Nc4cc(F)ccc4F)n3n2)CC1 | nt | 1 | -1.5 | nt | nt
N=c1sccn1CC(=O)Nc1cc(Cl)ccc1Oc1ccccc1 | 13% | -4 | -0.1 | -28 | -36
Cc1cc(C)n2nc(SCC3COc4ccccc4O3)nc2n1 (stereo not drawn) | -3% | -8 | -0.2 | -29 | -1
COc1cc(/C=C2\C(=N)N3N=C(S(=O)(=O)CC(C)C)SC3=NC2=O)ccc1OC(=O)c1ccco1 | nt | 3 | 32* | nt | nt
O=C(c1cc(-c2ccc(Br)cc2)on1)N1CCc2ccccc2C1 | nt | 1 | -2.1 | nt | nt
COCCN1C(=O)C(O)=C(C(=O)c2ccco2)C1c1cccc(Oc2ccccc2)c1 (stereo not drawn) | -8% | 3 | 1.0 | -42 | -12
COc1ccc(NS(=O)(=O)c2c(C(=O)N3CCCCCC3)c(C)n(C)c2C)cc1 | nt | -9 | 1.2 | nt | nt
O=C(Nc1cccc(NC(=O)C2C3CC4OC(=O)C2C4C3)c1)c1ccccc1 (stereo not drawn) | -2% | -1 | -0.7 | nt | -5
C(=C\c1nc(N2CCCC2)c2ccccc2n1)/c1ccccc1 | 5.3µM* | 98 | -2.6 | -43 | -38
O=C(COC(=O)c1sc2ccccc2c1Cl)Nc1ncc(Cl)cc1Cl | 13% | 92 | 1.0 | -27 | -1
N#Cc1cccc(Cn2cc(C(F)(F)F)ccc2=O)c1 | 15% | 2 | -1.1 | nt | nt
COc1ccccc1OCC(=O)Nc1ccc(S(=O)(=O)Nc2onc(C)c2C)cc1 | nt | -5 | -1.8 | nt | nt
Cc1cccc(C(=O)Oc2ccc(/C=N/NC(=O)c3cc(O)cc(O)c3)cc2)c1 | nt | -1 | 1.7 | nt | nt
O=C1c2cccnc2C(=O)N1CNc1ccc(Cl)cc1 | -1% | -2 | -2.2 | nt | -9
CCCc1cc2c(=O)c(-c3ccccn3)coc2cc1OC | 0% | 2 | 5.1 | -10 | 0
Cn1c(N)c(C(=O)CSc2nc(N)cc(N)n2)c(=O)n(C)c1=O | -3% | 2 | -0.1 | nt | 0
Cc1cccc(N2CCN(C(=O)Cc3ccc(-n4c(=O)[nH]c5ccsc5c4=O)cc3)CC2)c1C | 35% | 59 | 3.4 | -14 | 14
CN(Cc1ccccc1F)C(=O)c1ccc2c(=O)n3c(nc2c1)CCC3 | nt | -12 | -0.9 | nt | nt
Cc1c(C(c2ccc([N+](=O)[O-])cc2)c2c(C)n(C)n(-c3ccccc3)c2=O)c(=O)n(-c2ccccc2)n1C | -3% | -8 | 0.9 | -26 | 8
COc1cccc(OC)c1C(=O)NC(=O)NNc1cc(C(F)(F)F)cc(C)n1 | nt | -3 | 1.0 | nt | nt
COc1ccc2cc(-c3cc(C(=O)OCC(=O)NC4CCS(=O)(=O)C4)c4ccccc4n3)ccc2c1 (stereo not drawn) | 6% | -6 | -20 | 97* | -17
CC(C)(C)c1ccc(-c2nc3[nH]c(=O)cc(NC(=O)c4ccco4)n3n2)cc1 | nt | 93 | 0.8 | nt | nt
O=C(CCCC1=NS(=O)(=O)c2ccccc2N1)N1CCN(c2ccc([N+](=O)[O-])cc2)CC1 | nt | 1 | 0.8 | nt | nt
O=C(CN1C(=O)COc2ccccc21)N1CCc2ccccc2C1 | -4% | 10 | 1.6 | -31 | -6
Cc1ccc(C)c(NC(=S)N2CCC(NC(=O)c3ccccc3)CC2)c1 | nt | 2 | 1.5 | nt | nt
O=S(=O)(c1cccc(S(=O)(=O)N2CCCC2)c1)c1cccc(S(=O)(=O)N2CCCC2)c1 | -7% | 2 | 1.5 | -52 | 5
Clc1ccsc1-c1ccnc(-n2cccc2)n1 | 3% | 4 | 6.2 | nt | 0
CCn1c(CCCOc2ccc(Cl)cc2Cl)nnc1SCC(=O)Nc1cc(F)ccc1C | 0% | 4 | -1.6 | -9 | 22
O=C(NCc1ccccc1)Nc1cccc2ccccc12 | 2% | 9 | 4.4 | nt | -2
COCCn1c(Cc2ccccc2)nnc1SCC(=O)NC(C)C | nt | -4 | 0.6 | -31 | 2
CCCCN(C(=O)CSc1nnnn1C)c1c(N)n(Cc2ccccc2)c(=O)[nH]c1=O | -4% | -3 | -4.6 | nt | nt

(more compounds)
SMILES | Mtb growth | Mtb betalactam | RecA intein inh | YopH inh | Arbovirus anti | others
CC1(C(=O)OCc2cc(=O)n3cc(Br)ccc3n2)CC1(Cl)Cl (stereo not drawn) | -1% | -3 | 3.2 | nt | -2
CCO[C@H]1OC(C(=O)NC2CC2)=C[C@@H](c2ccc3c(c2)OCO3)[C@@H]1CCCO | -7% | 2 | 0.0 | nt | 5
O=C(O)c1nc(-c2ccccc2)n(-c2ccc(Cl)cc2)n1 | -5% | 2 | 0.9 | -27 | -5
COCCNC(=O)NC(=O)CSc1nc(C)c(C)c(C)n1 | -3% | -9 | -0.3 | nt | -2
CC(C)N1CCN(Cc2cccn2-c2ccccn2)CC1CCO (stereo not drawn) | -1% | -4 | -1.1 | nt | 2
CC(C)CCC1=NN(C(=O)c2ccco2)C(O)(C(F)(F)F)C1 (stereo not drawn) | -1% | -1 | 2.4 | nt | -11
CC(=O)Nc1ccc(S(=O)(=O)N2CCC(C(=O)NCc3ccncc3)CC2)cc1 | nt | 7 | 1.2 | nt | nt
Cc1ccc(C(=O)N/C(=C\c2ccc([N+](=O)[O-])cc2)C(=O)NCCc2ccccc2)cc1 | -9% | -4 | 1.4 | -21 | -14
Cc1cc(C)c2c(=O)[nH]c(SCC(=O)Nc3ccccc3)nc2n1 | -3% | -6 | -2.2 | -30 | -3
CCOC(=O)c1ccc(NC(=O)Nc2ccc(F)cc2)cc1 | -15% | 2 | -0.1 | -15 | 22
CCC(=O)Nc1cccc(NC(=S)NC(=O)c2cccc(C)c2)c1 | 16% | 11 | 1.0 | -24 | -5
CC1CCCC(C)N1/N=C/c1ccccc1Br (stereo not drawn) | nt | -1 | 0.7 | nt | nt

The final two records of the section before open the next one:
SMILES | Mtb growth | Mtb betalactam | RecA intein inh | YopH inh | Arbovirus anti | others
CCC(=O)Nc1cccc(NC(=S)NC(=O)c2cccc(C)c2)c1 | 16% | 11 | 1.0 | -24 | -5
CC1CCCC(C)N1/N=C/c1ccccc1Br (stereo not drawn) | nt | -1 | 0.7 | nt | nt
O=C(O)CC(NC(=O)Cc1ccc([N+](=O)[O-])cc1)c1ccc2c(c1)OCO2 (stereo not drawn) | -4% | 2 | -1.4 | nt | 2
Cc1cccc(C(=O)N2CCN=C2SCc2ccc([N+](=O)[O-])cc2)c1 | 5% | 5 | 7.5 | nt | -3
COc1ccc(OCC(=O)N/N=c2\oc3c(OC)cccc3cc2C(N)=O)cc1 | 6% | 14 | -3.0 | -22 | -14
O=C(CCCn1c(=O)[nH]c2cc(Cl)ccc2c1=O)NCC1CCCO1 (stereo not drawn) | nt | -9 | -1.8 | -26 | 4
CNC(=O)c1cc(C(=O)c2ccc(Cl)cc2)c(Br)[nH]1 | nt | 0 | 0.3 | nt | nt
Cc1ccc(NC(=O)c2cc(N3C(=O)CCC3=O)ccc2N2CCOCC2)cc1 | 4% | -2 | 3.5 | nt | 3
CCc1ccccc1NC(=O)CCC(=O)c1cccs1 | nt | 0 | 1.9 | nt | nt
CC(OC(=O)Cn1cnc2ccccc2c1=O)C(=O)NCc1ccccc1 (stereo not drawn) | nt | 4 | -0.3 | nt | nt
O=S(=O)(Nc1ccon1)c1ccc(F)c(F)c1 | nt | -13 | 1.7 | nt | nt
COc1ccc(C(=O)N/N=C2\CCS(=O)(=O)c3ccc(F)cc32)cc1OC | -7% | 0 | -3.1 | nt | nt
Fc1ccc(C2c3[nH]c4ccccc4c3CCN2Cc2ccoc2)cc1 (stereo not drawn) | 11% | 1 | -0.2 | nt | -5
COC(=O)CCCn1c(C)cc(C(=O)CCl)c1C | 5.4µM* | 100 | 2.0 | nt | -5
CCOC(=O)c1[nH]c(=O)c2ccccc2c1O | 7% | 2 | 56* | -27 | -1
Cc1cc(Cl)nc(-n2nc(C)cc2C)n1 | -1% | 7 | 0.0 | nt | nt
